PABP FP inh: blocks human PABP binding to poly(A) RNA. P11940. fluorescence polarization. inhibition, % at 35 µM. 1% of 290,000 active;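 active = 50% or more with normal probe brightness, or confirmed in later tests; inconclusive = above 50% with abnormal brightness, or retests that disagree; inactive = below 50% or failed in later tests; about a fifth of its hits are not listed in these tables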;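 note: calls also rest on retests at 20 µM and on dose response follow-up; controls were probe without protein and protein plus probe with vehicle; some compounds called inactive have numbers as strong as hits; many hits fall short of the cut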
Target sequence (P11940 whole entry, looked up): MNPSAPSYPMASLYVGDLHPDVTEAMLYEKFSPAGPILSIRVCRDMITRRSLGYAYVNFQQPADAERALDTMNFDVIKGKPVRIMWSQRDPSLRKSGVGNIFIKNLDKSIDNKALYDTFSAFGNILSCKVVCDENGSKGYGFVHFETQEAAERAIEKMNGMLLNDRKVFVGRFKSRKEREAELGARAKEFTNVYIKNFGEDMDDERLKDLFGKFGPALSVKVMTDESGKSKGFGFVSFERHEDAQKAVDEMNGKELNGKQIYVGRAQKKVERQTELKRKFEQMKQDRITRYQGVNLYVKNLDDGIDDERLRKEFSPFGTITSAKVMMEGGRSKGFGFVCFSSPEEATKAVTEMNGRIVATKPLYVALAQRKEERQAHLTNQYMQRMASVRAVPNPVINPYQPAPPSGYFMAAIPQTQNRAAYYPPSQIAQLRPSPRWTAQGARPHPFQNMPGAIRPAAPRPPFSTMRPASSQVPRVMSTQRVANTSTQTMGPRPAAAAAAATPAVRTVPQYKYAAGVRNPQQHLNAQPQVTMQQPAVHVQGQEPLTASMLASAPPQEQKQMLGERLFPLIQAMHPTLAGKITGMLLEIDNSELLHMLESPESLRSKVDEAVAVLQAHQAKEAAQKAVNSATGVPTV
CSC inhib: blocks cancer stem cells; inhibition, % at 7.5 µM; 1.1% of 300,000 active; cancer stem cell-like cells viability, luminescence;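 active = mean at 75% or more and at least half the replicates too; inconclusive = mean and replicates disagree; tested in HMLE shEcad cells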;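 note: 0% = median of negative and 100% = median of positive control wells; the first replicate is given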
Rce1 inh: yeast Ras-converting enzyme inhibition; 0.27% of 290,000 active; calls only; yeast membranes, quenched prenylated peptide cleavage fluorescence;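 active = fall in fluorescence gain of 50% or more versus controls, with final raw signal at or below 3038400; inconclusive = same 50% fall but final raw signal above 3038400; inactive = fall in fluorescence gain under 50%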;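 note: plate controls were neutral control wells for no effect and wells lacking membranes for full effect; tested at 10 µM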
eIF4H inh: inhibitors of RNA binding by human eIF4H; eIF4H fluorescence polarization binding assay; Q15056; 0.94% of 290,000 active; inhibition, % at 35 µM;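 active = 50% or more with normal probe brightness, or confirmed in later tests; inconclusive = above 50% with abnormal brightness, or retests that disagree; inactive = below 50% or failed in later tests; about a fifth of its hits are not listed in these tables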;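 note: calls also rest on retests at 20 µM and on dose response follow-up; 0% = protein and probe with vehicle and 100% = probe without protein; strong numbers were not always called active; many hits fall short of the cut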
Env fusion inh: blocks HIV Env-driven cell-cell fusion; HeLa-JRFL Env/CEM21 cell fusion, luciferase; inhibition, % at 12.3 µM; 1.1% of 360,000 active;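 active = mean replicate inhibition score of at least 50 and every replicate individually at or above 50; inconclusive = only one of the two criteria met; inactive = mean below 50 and not all replicates reaching 50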;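 note: 0% = plate neutral controls and 100% = maraviroc near 300 nM; one replicate is shown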
MT1-MMP act inh: blocks activation of human MT1-MMP | P50281 | HT1080 RFP-PRO-GFP cells, GFP/RFP ratio fluorescence, overnight; percent of plate control window, DMSO zero | GFP/RFP ratio change, % at 20 µM | 0.061% of 360,000 active;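 active = GFP/RFP ratio change of at least 30% with cell ATP level not reduced by more than half and red fluorescence within 50% of control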; note: strong numbers were not always called active
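Assay system: HT1080 RFP-PRO-GFP cells. Benchmarks: DMSO vehicle wells and RFP-L50D-GFP reporter cell wells. Times: overnight cell settling, then overnight compound exposure, 37 °C, 5% CO2. Compound: 20 µM single dose, 1% DMSO. Read-out basis: GFP/RFP fluorescence ratio.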
Yeast UUG start: alters start codon recognition fidelity in yeast. activity score, % at 18.7 µM. 0.13% of 350,000 active. S. cerevisiae UUG-firefly luciferase reporter, luminescence/redox ratio;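 active = replicate mean at a twofold rise or more, about +100% in these data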;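 note: firefly luciferase made from a UUG start codon reports start codon fidelity; reporter light over untreated wells divided by growth signal over untreated wells; some hits fall short of that in this replicate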
eIF4H inh retest: further read-out of eIF4H inh, marked with its call; inhibition, %; compound at 20 µM; confirmation average;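 mean of two retest wells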
PABP FP inh retest: second read-out of PABP FP inh, no call of its own (marks repeat the call); inhibition, %; compound at 20 µM; confirmation repeats;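 mean of two retest wells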
MT1-MMP act inh RFP: also measured in MT1-MMP act inh; calls as there; RFP signal change, %; measured here: RFP expression control read;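 0 = vehicle wells; hits needed this value within 50% of zero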
* = called active by the depositor; i = inactive; ? = inconclusive; . = not tested or not shown. These rows are one share of the data; rates above refer to the full screens.

SMILES | PABP FP inh | CSC inhib | Rce1 inh | eIF4H inh | Env fusion inh | MT1-MMP act inh | MT1-MMP act inh RFP | Yeast UUG start | others
O=C1NC(=S)NC(=O)C1=Cc1ccc(Br)s1 | 42 | 19 | i | 41 | -8 | -13 | 3 | -30
O=[N+]([O-])c1ccc(NCCCN2CCOCC2)c2ncccc12 | 1 | -9 | i | 2 | 6 | 4 | 2 | -13
Fc1ccccc1CN1Cc2ccccc2-n2nncc2C1 | . | . | . | . | 14 | 4 | 1 | -25
CN(C)C(=O)Oc1ccc(-c2cn3cc(Cl)ccc3n2)cc1 | 10 | 19 | i | 2 | . | 3 | 1 | -24
Cc1cc(C)c(NC2=NCCCS2)c(C)c1 | 8 | -14 | i | -3 | . | . | . | -3
O=C1CN(C(=O)COC(=O)Cc2ccccc2)c2ccccc2N1 | -1 | -12 | i | -7 | -11 | -1 | -3 | .
CCOC(=O)c1c(C)c(C(=O)N2CCC3(CC2)OCCO3)c(C)n1CC | 13 | -8 | i | 10 | -93 | 6 | 5 | .
CCCCCCOC(=O)c1ccccc1N | -9 | -11 | i | -4 | -36 | -5 | 1 | -11
N#Cc1ccc(Cn2cc(C=O)c3ccccc32)cc1 | 1 | -2 | i | -17 | 23 | -1 | -2 | -12
O=C1NC(=O)C2C1C1(Cl)C(Cl)=C(Cl)C2(Cl)C1(Cl)Cl (stereo not given) | . | . | . | . | 17 | -6 | 2 | -18
CC1SC2(CN3CCC2CC3)NC1=O (stereo not given) | 6 | -7 | i | -6 | . | 0 | 7 | -13
C=CCn1c(O)c(Cc2ccc(OCC)cc2)c(=O)[nH]c1=O | 6 | 4 | i | 4 | -5 | 2 | 5 | -20
CCC(C)N1C(=O)/C(=C\c2ccc(N3CCCCCC3)cc2)C(=O)NC1=S (stereo not given) | -2 | -2 | i | 61 | -152 | 33* | 49* | . | eIF4H inh retest=3;PABP FP inh retest=-3
CCN1CCN(C(=O)COc2ccc3c(c2)C(=O)CC2(CCN(C(C)=O)CC2)O3)CC1 | 9 | -12 | i | -2 | -6 | 4 | 5 | 17
CCC(c1ccc(C)cc1)N1C(=O)C2C3CCC(O3)C2C1=O (stereo not given) | . | -5 | . | . | 9 | 4 | -1 | -3
CC(Cc1ccccc1)NC(N)=O (stereo not given) | 4 | -2 | i | 1 | -2 | 0 | 8 | 12
CCC(=NCc1ccc2c(c1)OCO2)c1c(O)n(C)c(=O)n(C)c1=O | 2 | -1 | i | -9 | 77* | 4 | -16 | 4
CCOP(=O)(OCC)c1cc(C)c(O)c(C(C)(C)C)c1 | 2 | -24 | i | 1 | -3 | -1 | 1 | .
CC(C)CN1CCN(Cc2ccc(F)cc2Cl)CC1CCO (stereo not given) | 2 | 14 | i | -2 | 6 | -5 | -1 | .
CC(C)c1ccc(NC(=O)CSc2nnc(OC(=O)N(C)C)n2C2CC2)cc1 | 2 | -10 | i | 0 | -11 | -1 | 2 | 7
CC(CC(C#N)(c1ccccc1)c1ccccc1)N1CCOCC1 (stereo not given) | . | . | . | . | -3 | -1 | -5 | -19
c1ccc2[nH]c(CCN3CCCCC3)nc2c1 | . | . | . | . | -4 | 3 | 4 | -21
COc1ccc(-n2c(/C=C/c3cccc(F)c3)nc3ccccc3c2=O)c(OC)c1 | -4 | -6 | i | -1 | 14 | -3 | -4 | -12
CN(C)CCCN=Cc1c(O)n(CCc2ccc(F)cc2)c(=O)[nH]c1=O | -3 | -5 | i | 0 | -78 | -2 | 2 | -15
O=C(c1ccc(-c2ccccc2)cc1)C1CCCN(Cc2ccn[nH]2)C1 (stereo not given) | -10 | -2 | . | -3 | 25 | 2 | 4 | 1
Cc1cc(O)c2c3c(c(=O)oc2c1)CCC(C)C3 (stereo not given) | -1 | 3 | i | -2 | 25 | -3 | -23 | -25
CN1C(=O)N(C)C(=O)C2(Cc3cc([N+](=O)[O-])ccc3N(C)C2c2ccccc2)C1=O (stereo not given) | -7 | 7 | i | -7 | -188 | 5 | 8 | .
C[C@]12CC[C@H](O)C[C@@H]1CC[C@H]1[C@H]3CCC(=O)[C@@]3(C)CC[C@@H]12 | . | . | . | . | 7 | 2 | 2 | -12
O=P1(NCCCn2cc[n+](Cc3nc4ccccc4[nH]3)c2)C=C(c2ccccc2)OC(c2ccccc2)=C1 | 38 | -16 | i | 3 | -5 | 2 | 4 | -5
COC(=O)CC(=O)c1ccc2c(c1)OCO2 | . | 0 | i | . | 13 | 0 | 2 | -22
Cc1ccc(N2C(=O)NC(=O)/C(=C\C=C\c3ccco3)C2=O)cc1C | 3 | 53 | i | ? | . | -8 | 31 | 0
O=S(=O)(c1ccccc1)N1CCN2CCCC2C1 (stereo not given) | 82* | 20 | i | 96* | -72 | 1 | 0 | -7
Cc1cccc(OCC(=O)N2CCN(Cc3ccc([N+](=O)[O-])cc3)CC2)c1 | 7 | 0 | i | 23 | 14 | 3 | -6 | 1
CN1CCN(c2ccccc2N)CC1 | -10 | -9 | i | 7 | 2 | 9 | 7 | -13
COc1ccc(C2CN(C)CC2C(=O)c2ccc(C)cc2)cc1Cl (stereo not given) | -8 | 3 | i | -1 | 8 | -11 | -5 | .
C[C@]12CCC3C(CC[C@@H]4C[C@@H](O)CC[C@]34C)C1CC[C@@H]2O (stereo not given in full) | . | . | . | . | 6 | 4 | 1 | -10
COC(=O)C1=C(c2ccc(F)cc2F)C[C@@H]2CC[C@H]1N2C(=O)NCCOc1ccccc1Cl | . | 13 | . | . | . | 0 | -3 | -11
CCOC(=O)CC1=C(C(=O)OCC)C2(C(=O)N1)C(C(=O)OC)=C(N)Oc1ccccc12 (stereo not given) | -3 | -6 | i | -4 | -13 | -7 | -1 | -9
COC(=O)C1=C(c2ccc(C(C)=O)cc2)C[C@@H]2CC[C@H]1N2C(=O)NCc1ccco1 | . | 4 | . | . | 3 | 3 | 3 | -11
CCCC1COC(Cn2cncn2)(c2ccc(Cl)cc2Cl)O1 (stereo not given) | -3 | -1 | i | 9 | -28 | -3 | 1 | -36
COc1cc(/C=C/c2nc3ccccc3c(=O)n2-c2ccccc2O)ccc1O | 9 | -2 | i | -2 | 14 | -68 | 0 | -12
CN1C(=O)NC(=O)/C(=C/c2ccc(C(=O)O)cc2)C1=O | -11 | -4 | i | 8 | -2 | 5 | 2 | .
OC1/C(=C/c2ccc(C(F)(F)F)cc2)N2CCC1CC2 (stereo not given) | 0 | -5 | i | -9 | 1 | -3 | 0 | .
O=Cc1cn(Cc2c(F)cccc2Cl)nc1-c1ccccc1 | . | 9 | i | . | 19 | 0 | -4 | .
COc1ccccc1CN1CCN(Cc2ccc(Cl)cc2)CC1 | 8 | 27 | i | 7 | -6 | 4 | 5 | .
CCC(C)NS(=O)(=O)c1ccc(OCC(=O)N2CCN(CC)CC2)cc1 (stereo not given) | 4 | -10 | i | 1 | . | -1 | 2 | -1
O=C(Cn1cc(C(=O)c2ccccc2)c2ccccc21)NCc1ccco1 | 4 | 2 | i | -4 | -56 | -15 | -2 | 0
CC(=O)OC1C2CCC1C(N1CCCCC1)CC2 (stereo not given) | 7 | -8 | i | 2 | 8 | -1 | 1 | -16
COCc1cc(OC(=O)N(C)C)nc2c1c(C)nn2C | -10 | 0 | i | -3 | -11 | 2 | 5 | .
C[C@]12CCC3C(CC[C@H]4C[C@H](O)CC[C@]34C)C1C[C@@H](O)[C@H]2O (stereo not given in full) | . | . | . | . | 23 | -2 | -1 | 6
O=C(COc1ccc(Cl)cc1)N(c1ccc(Cl)cc1)C1CN2CCC1CC2 (stereo not given) | -11 | 8 | i | 2 | 0 | -5 | -5 | .
CSCCC(c1nnnn1C1CCCCC1)N1CCC(n2c(=O)[nH]c3ccccc32)CC1 (stereo not given) | . | . | . | . | -124 | -3 | -1 | 12
COc1ccc2c(c1OC)CN1CCc3cc4c(cc3[C@H]1C2)OCO4 | . | -19 | . | . | . | -9 | -19 | -23
Cc1cccc(C)c1-n1nnnc1C(C1CC1)N1CCC(n2c(=O)[nH]c3ccccc32)CC1 (stereo not given) | . | . | . | . | -32 | -1 | -10 | -12
CC(C)(C)C(=O)c1cn(Cc2ccccc2)c2ccccc12 | 7 | -10 | . | 3 | 13 | 0 | 0 | .
COC(=O)C1=C(c2ccccc2)C[C@@H]2CC[C@H]1N2C | . | -19 | . | . | 4 | 2 | 2 | -14
CCN(CC)S(=O)(=O)c1ccc(C(=O)NC2CN3CCC2CC3)cc1 (stereo not given) | 7 | . | i | 0 | -7 | -2 | 5 | -6
Cc1c(C(c2ccc(F)cc2)c2c(O)c3ccccc3oc2=O)c(=O)n(-c2ccccc2)n1C (stereo not given) | -3 | -1 | i | -4 | 19 | -2 | 0 | .
CC(=C1C(=O)c2ccccc2C1=O)N1CCN(CCN=Cc2c(O)n(C)c(=O)n(C)c2=O)CC1 | 5 | 12 | i | 1 | 2 | -12 | -1 | -12
Cc1nc2cc(-c3cccc(F)c3)nn2c(C)c1CCC(=O)N1CCC2(CC1)OCCO2 | -1 | -7 | i | -2 | 44 | 8 | -5 | -14
C/C1=C\[C@@H](C)C/C=C/[C@H]2[C@@H]3O[C@]3(C)[C@@H](C)[C@H]3[C@H](Cc4c[nH]c5ccccc45)NC(=O)[C@]32C(=O)/C=C/C(=O)[C@@H]1O | 15 | 62 | i | 47 | . | 9 | 12 | 17
O=C1c2ccccc2-n2nncc2C2c3cc(Br)ccc3CCN12 (stereo not given) | . | . | . | . | 29 | 4 | -1 | 12
O=C1NCN(c2ccccc2)C12CCN(C(c1nnnn1C1CCCCC1)C1CC1)CC2 (stereo not given) | . | . | . | . | -7 | -2 | -7 | -4

Of the compounds above, 9 contain sulfur:
SMILES | PABP FP inh | CSC inhib | Rce1 inh | eIF4H inh | Env fusion inh | MT1-MMP act inh | MT1-MMP act inh RFP | Yeast UUG start | others
O=C1NC(=S)NC(=O)C1=Cc1ccc(Br)s1 | 42 | 19 | i | 41 | -8 | -13 | 3 | -30
Cc1cc(C)c(NC2=NCCCS2)c(C)c1 | 8 | -14 | i | -3 | . | . | . | -3
CC1SC2(CN3CCC2CC3)NC1=O (stereo not given) | 6 | -7 | i | -6 | . | 0 | 7 | -13
CCC(C)N1C(=O)/C(=C\c2ccc(N3CCCCCC3)cc2)C(=O)NC1=S (stereo not given) | -2 | -2 | i | 61 | -152 | 33* | 49* | . | eIF4H inh retest=3;PABP FP inh retest=-3
CC(C)c1ccc(NC(=O)CSc2nnc(OC(=O)N(C)C)n2C2CC2)cc1 | 2 | -10 | i | 0 | -11 | -1 | 2 | 7
O=S(=O)(c1ccccc1)N1CCN2CCCC2C1 (stereo not given) | 82* | 20 | i | 96* | -72 | 1 | 0 | -7
CCC(C)NS(=O)(=O)c1ccc(OCC(=O)N2CCN(CC)CC2)cc1 (stereo not given) | 4 | -10 | i | 1 | . | -1 | 2 | -1
CSCCC(c1nnnn1C1CCCCC1)N1CCC(n2c(=O)[nH]c3ccccc32)CC1 (stereo not given) | . | . | . | . | -124 | -3 | -1 | 12
CCN(CC)S(=O)(=O)c1ccc(C(=O)NC2CN3CCC2CC3)cc1 (stereo not given) | 7 | . | i | 0 | -7 | -2 | 5 | -6

Screens from PubChem BioAssay.
